# miR-21 FLuc – qHTS Assay for Modulators of miRNAs and/orActivators of miR-21; 340,000 tested, under 10 active; Potency, µM (highest dose often 38.3 µM), without a hit: at the highest dose reporter change, positive = more light; AID 2288, 2010; HeLa miR-21 FLuc reporter, luciferase, 48 h; active = well fitted rising curve with a large enough effect; inconclusive = small, poorly fitted or top-dose-only effect; inactive = no such curve, though single readings can be large or run the other way;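 note: % of control where 0% means no effect; miR-21 action dims this reporter so a rising signal means less miR-21 action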
#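 HeLa cells endogenously expressing miR-21, stably carrying CMV-driven firefly luciferase with a downstream miR-21 binding site, 2000 cells/well. Titrations up to approximately 40 uM, 48 hours; luciferase luminescence read.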
# Rango complex inh – qHTS Assay for Inhibitors of Rango (Ran-regulated importin-beta cargo) - Importin beta complex formation; Importin subunit beta-1 (Homo sapiens), Q14974; Rango CFP/YFP FRET sensor + importin beta, 45 min; Potency, µM (top dose mostly 92.2 µM), without a hit: top-dose inhibition of complex formation; 340,000 compounds, 0.031% hits; AID 540263, 2011; active = rising FRET ratio curve, often small or poorly fitted; inconclusive = mostly compound fluorescence or quenching in the first reads; inactive = flat curves in all reads;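 note: potency is the fitted concentration of half-maximal effect; 0% = DMSO wells and 100% = buffer wells lacking importin beta; nearly all actives have a fitted effect of over 15% in size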
#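 FRET biosensor (snurportin 1 IBB flanked by EYFP and cerulean), 50 nM, with compound 5 min, then 0.125 microM importin beta in PBS, 1 mM DTT, 0.02% Tween-20, 0.1% BSA. CFP/YFP ratio read after 45 min at room temperature; pre-read flags interference.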
# Rango dissoc inh – qHTS Assay for Inhibitors of RanGTP induced Rango (Ran-regulated importin-beta cargo) - Importin beta complex dissociation; AID 540253, 2011; Snurportin-1 (Homo sapiens) + GTP-binding nuclear protein Ran (Homo sapiens) + Importin …; Potency, µM (series often up to 46.1 µM), for the others: at the highest dose activity change, negative = inhibition; 340,000 compounds, 0.071% hits; Biochemical FRET Rango-importin beta, RanGTP-induced dissociation; active means falling FRET ratio curve, often poorly fitted, with flat reads before Ran was added; inconclusive means other falling curves, or compound fluorescence or quenching; inactive means flat or rising ratio curve;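 note: potency is the fitted concentration of half-maximal effect; % of control where 0% means no effect; nearly all actives have a fitted effect of over 45% in size; -100% = wells without RanGTP and RCC1; the record marks most hits as doubtful in a second field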
#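 Rango FRET biosensor (snurportin-1 IBB flanked by N-terminal EYFP and C-terminal CFP10) at 0.1 uM, with 0.25 uM importin beta in PBS, 1mM DTT, 0.02% Tween-20, 0.1% BSA. 0.6 uM Ran, 2mM GTP and 0.2 uM RCC1 were then added for 45 min at room temperature. Inhibition read as loss of FRET rise.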
# GLA inh pH 4.5 – qHTS Assay for Inhibitors of Human alpha-Galactosidase at pH 4.5. Alpha-galactosidase A (Homo sapiens), P06280. purified enzyme, 4-MU-alpha-Gal fluorescence, pH 4.5. activity change, negative = inhibition, % at 105 µM. 230,000 tested, under 10 active; inconclusive = small, poorly fitted or top-dose-only inhibition, or a rising curve; inactive = flat fitted curve, though single readings scatter; no compound was filed as active;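 note: 0% = full activity with enzyme and -100% = basal without enzyme; dose as in the result columns while the protocol names 77 µM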
# Target sequence (P06280 whole entry, looked up): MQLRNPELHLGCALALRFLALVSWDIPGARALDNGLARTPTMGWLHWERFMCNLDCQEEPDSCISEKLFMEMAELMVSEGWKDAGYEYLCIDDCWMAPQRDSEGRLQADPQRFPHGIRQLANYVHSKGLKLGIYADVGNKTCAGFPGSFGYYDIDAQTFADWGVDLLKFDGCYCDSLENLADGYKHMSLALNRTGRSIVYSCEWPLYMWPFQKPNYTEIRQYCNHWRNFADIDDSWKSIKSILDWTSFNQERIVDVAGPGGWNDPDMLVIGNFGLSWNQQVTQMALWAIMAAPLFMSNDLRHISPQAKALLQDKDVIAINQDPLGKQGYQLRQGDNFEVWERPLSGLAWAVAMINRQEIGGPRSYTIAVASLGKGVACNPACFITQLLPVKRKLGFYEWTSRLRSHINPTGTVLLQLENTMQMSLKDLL
# Numbers without * were called inactive; u = inconclusive; x = not tested or not shown; & = joins results of further samples; [ ] = another dose, or the depositor's remark. The list is partial (hit frequency here may not be typical).
miR-21 FLuc,Rango complex inh,Rango dissoc inh,GLA inh pH 4.5,compound
-1%,6.3%,-9%,-18,COc1cc(/C=C2\SC(=S)N(C(C(=O)O)c3ccccc3)C2=O)cc(OC)c1OC (stereo not given)
1%,-3.3%,23%,-8,COC(=O)Nc1ccc(S(=O)(=O)N2CCCC(C(=O)N3CCOCC3)C2)cc1 (stereo not given)
-1%,-3.1%,-6%,-9,CCOC(=O)c1cc(NC(=O)N2CCCCC2)c(C)nc1C
x,-1.5%,-14%,x,Cc1ccc(Cn2c(C3CCCN3c3nc(-c4cc(Cl)c(N)c(Cl)c4)cs3)nc3cc(Cl)c(Cl)cc32)cc1 (stereo not given)
-4%,-1.4%,-13%,2,CC(C)CC(=O)Nc1nnc(SCC(=O)NCc2ccco2)s1
-5%,2.8%,8%,7,O=C(NCC1CCCCC1)C1CCCN(C(=O)NC2CCCCC2)C1 (stereo not given)
x,2.2%,-14%,x,CCOc1ccc(OCCC(=O)OCC(=O)Nc2cc(S(=O)(=O)N3CCOCC3)ccc2OC)cc1
0%,u,1%,x,O=C(COc1ccc([N+](=O)[O-])cc1)NNC(=O)c1cccnc1
x,-0.9%,-1%,x,O=C1CCCN1c1ccc(C(=O)N(Cc2nnc(-c3ccc(Cl)cc3)o2)C2CC2)cc1
18%,7.0%,11%,x,CCC(C)COC(c1ccccc1)(c1ccccc1)C(Oc1nc(C)cc(C)n1)C(=O)O (stereo not given)
2%,-3.5%,15%,x,CN(C)c1ccc(CNCC2CCCO2)cc1 (stereo not given)
18%,1.6%,8%,4,COc1cc(-c2nc(Cc3c(F)cccc3Cl)no2)cc(OC)c1OC
6%,-2.6%,9%,-1,Cc1ccc(Sc2ccc(CN3CCCCC3)cc2[N+](=O)[O-])cc1
x,0.0%,-4%,x,O=C(c1cc2ccccc2[nH]1)N1O[C@@H]2C=C[C@H]1C2
5%,u,-23%,-3,NC(=O)Cn1c(-c2nonc2N)nc2ccccc21
1%,1.7%,1%,8,Cc1ccc(NC(=O)CCC(=O)c2cccs2)cc1
-6%,-0.1%,2%,4,CCOC(=O)c1nn(-c2ccc(Cl)cc2)c2nc(Nc3ccccc3)cc(=O)n12
x,1.2%,-14%,x,CN(C)C1=NC[C@H](Cc2ccccc2)N1CCCC1CCCC1
-4%,0.6%,1%,2,CNC(=O)N(O)C1N(C)C(=O)N(CC(=O)OC)C1(C)C (stereo not given)
-14%,1.4%,-9%,-2,CSCCC(NC(=O)c1cccc(S(=O)(=O)N2CCOCC2)c1)C(=O)Nc1ccc(F)cc1 (stereo not given)
-51%,-0.3%,-4%,1,CCC(=O)Nc1ccc(NC(=O)c2cccc(OC)c2)nc1
-10%,-6.5%,-7%,1,CC(C)CC(=O)Nc1nnc(SCC(=O)NCc2ccc3c(c2)OCO3)s1
4%,-2.1%,4%,-3,CCOC(=O)C1CCCN(Cc2nc3ccc([N+](=O)[O-])cc3c(=O)n2-c2ccc(OC)cc2OC)C1 (stereo not given)
u,0.3%,11%,-9,CC(C)(C)CC(C)(C)NC(=O)Nc1cccc([N+](=O)[O-])c1
x,-0.2%,-14%,x,O=C(COC(=O)c1cc([N+](=O)[O-])ccc1N1CCOCC1)Nc1c(Cl)cccc1Cl
-17%,0.5%,1%,x,Cc1cccc(NC(=O)c2cc(=O)c3ccccc3o2)c1
4%,0.2%,8%,-3,COc1ccc(C(=O)NCCNC(C)=O)cc1S(=O)(=O)NCc1ccc(Cl)cc1
-49%,-0.4%,-15%,-3,COc1ccccc1CNC(=O)CSc1ccsc1[N+](=O)[O-]
-2%,1.7%,-4%,-16,O=C(COC(=O)CSc1ccc2ccccc2c1)Nc1ccccc1OC(F)F
16%,5.4%,3%,-1,Cc1cccc2c(=O)cc(C)n(Cc3ccccc3)c12
5%,-2.6%,-1%,x,COc1cccc(C(=O)Nc2ccc(NC(=O)C3CCCCC3)nc2)c1
-11%,0.5%,10%,8,COc1ccc(/C(C)=N/NC(=O)C2CC2)cc1
-13%,-0.1%,7%,x,Cc1ccc(CNC(=O)c2cc3c(s2)CS(=O)(=O)C3)cc1
1%,0.1%,2%,-2,C=CCN1C(=O)C2C3C=CC(C2C1=O)C1C2C(=O)N(CC=C)C(=O)C2C31 (stereo not given)
1%,6.6%,16%,4,CC(=O)Nc1ccc(S(=O)(=O)N2CCN(c3cc(C)nc4ccccc34)CC2)cc1
x,-2.2%,3%,x,CC(=O)Nc1ccc(NC(=O)C2CC(=O)N(Cc3ccco3)C2)cc1 (stereo not given)
1%,1.3%,0%,10,Cn1c[n+](C)cc1-c1ccc(/C(N)=N/O)cc1
-11%,0.8%,-6%,-10,CCOc1ccsc1C(=O)O
2%&-12%,1.7%,17%,-17,CCN(Cc1ccccc1)C(=O)c1cc2c(=O)oc3ccc(C)cc3c2s1
0%,-0.3%,3%,x,CCCCc1cc(=O)oc2cc(C)cc(OCC(=O)NCC3CCC(C(=O)O)CC3)c12 (stereo not given)
-12%,-1.0%,4%,-2,CCCS(=O)(=O)N1CCCC(C(=O)NCCCN(Cc2ccccc2)C(C)C)C1 (stereo not given)
x,-1.8%,-15%,x,O=C(CC(=O)N1CCOCC1)N1CCOCC1
0%,0.1%,10%,x,CC(NC(=O)C1CCC(=O)N1Cc1ccccc1Cl)c1ccccc1 (stereo not given)
0%,-0.4%,-11%,-1,COc1ccccc1NC(=O)NCC(c1ccco1)N1CCCCC1 (stereo not given)
0%,0.2%,12%,x,CCOc1ccc(CN2CCNC(=O)C2CC(=O)N(C)C2CCCCC2)cc1 (stereo not given)
-1%,-0.4%,-11%,-8[21.1 µM],Cc1ccc2cc(CN(c3ccc(C)c(C)c3)S(C)(=O)=O)c(=O)[nH]c2c1
-14%,7.7%,-2%,6,COc1ccc(CCn2cnc3c([nH]c4ccccc43)c2=O)cc1
2%,0.9%,5%,-7,COc1ccc(/C=C/C(=O)NCc2cn(C)nc2C)cc1COc1ccc(Cl)cc1Br
1%,0.0%,-3%,x,COc1cc(/C=C/CN2CCC(Oc3ccc(C(=O)N4CCCC4)cc3)CC2)ccc1O
-19%,-2.1%,27%,1,COc1cccc(C(=O)NC(=S)Nc2ccccc2N2CCCC2)c1

# Next structures follow:
miR-21 FLuc,Rango complex inh,Rango dissoc inh,GLA inh pH 4.5,compound
x,1.3%,-10%,x,CC(C)CN(C(=O)Cn1c(C(F)(F)F)nc2ccccc21)C1CCS(=O)(=O)C1 (stereo not given)
-6%,3.3%,-16%,3,CC(=O)C(Cc1ccc(Cl)nc1)Cc1ccc(Cl)nc1
0%,2.1%,-13%,x,COc1ccc(/C=C2\C(=N)N3N=C(CC(=O)N4CCOCC4)SC3=NC2=O)cc1
0%,0.9%,-3%,x,CC(=O)Nc1ccc(-c2sc(Nc3cccc4ccccc34)n[n+]2-c2ccccc2)cc1
x,2.9%,6%,x,Cc1ccc(S(=O)(=O)N2CCOCC2)cc1C(=O)Nc1ccc2c(c1)OCCO2
-36%,-8.1%,-8%,x,O=C(Nc1cc2c(cc1C(=O)O)OCCCO2)c1ccc(F)cc1F
5%,u,u,x,Cc1cccn2c(=O)c(/C=C(\C#N)C(N)=O)c(N3CCN(c4cccc(Cl)c4)CC3)nc12
2%,-4.0%,-23%,3,COC(=O)C1C2C=CC3(CN(Cc4ccco4)C(=O)C13)O2 (stereo not given)
-1%,-4.3%,-17%,4,Cc1onc(-c2ccccc2)c1C(=O)NCc1ccc2c(c1)OCO2
-5%,-0.7%,-7%,-2,O=S(=O)(c1cc(Cl)ccc1Cl)N1CC2CCCN2c2ccc(C(F)(F)F)cc21 (stereo not given)
8%,-2.7%,18%,18,COc1cccc(NC(=O)CSc2nc3c(sc4ccccc43)c(=O)n2CCN(C)C)c1
-15%,-0.8%,-5%,-21,C=CCN(c1ccc(C(=O)OC)cc1)S(=O)(=O)c1ccccc1
-5%,0.0%,22%,-7,COc1ccc(C(=O)NC(=S)Nc2ccccc2N2CCOCC2)cc1Br
-2%,-0.1%,-17%,x,Cc1cc(C)c(C(=O)N2CCCC(Nc3ccc(F)cc3)C2)o1 (stereo not given)
-3%,u,u,-9,COc1ccc(OC)c(-c2cc(C(F)(F)F)c3c(n2)sc2c(O)cc(=O)[nH]c23)c1
-59%,1.2%,6%,8,Nc1c(-c2ccccc2)n[nH]c1-c1ccccc1
20%,1.0%,-2%,x,CN(Cc1ccccc1)c1ccc(C(CC(N)=O)NC(=O)c2ccc(Br)cc2)cc1[N+](=O)[O-] (stereo not given)
x,-3.0%,2%,x,Cc1ccccc1Nc1nnc(SCC(=O)c2c(N)n(C3CC3)c(=O)[nH]c2=O)s1
-2%,-4.7%,6%,3,COCC(=O)Nc1ccccc1-c1ccccc1
2%,8.1%,0%,2,COc1ccc(CNC(=O)CCC(=O)N2CCN(S(=O)(=O)c3ccc(Cl)cc3)CC2)cc1
x,-2.2%,-2%,x,CC(=O)C[C@H](O)CC(=O)[C@H]1OC(=O)[C@H](C)CCCCc2ccccc21
-4%,-0.9%,-1%,-1,COc1ccc(CCNS(=O)(=O)c2ccc3c(c2)CCN3C(=O)CCC(=O)O)cc1OC
x,1.7%,7%,x,CC(OC(=O)CCN=C1NS(=O)(=O)c2ccccc21)C(=O)Nc1ccc(N(C)C)cc1 (stereo not given)
-4%,-0.5%,0%,4,OC(COCc1ccccc1)CN1CCN(c2ccccc2F)CC1 (stereo not given)
24%,1.1%,2%,x,COC(=O)[C@]1(C)CCC[C@@]2(C)C3CC[C@@]4(C)C[C@]3(CC[C@H]12)C[C@H]4O (stereo not given in full)
9%,1.2%,2%,10,CN(Cc1ccccc1)S(=O)(=O)c1cccc2nsnc12
6%,-0.6%,1%,x,C#CCN(C(=O)c1ccc(OC2CCN(Cc3ccccn3)CC2)cc1)C1CCCCC1
5%,x,x,3,O=C(NC1CCCCC1)NC1CC2CCC(C1)N2C(=O)NCc1ccccc1 (stereo not given)
x,0.0%,-9%,x,CC1CC(C)(C)CC2(C1)NC(=O)N(CC(=O)NCc1ccccc1F)C2=O (stereo not given)
x,-0.1%,-1%,x,Cc1ccccc1C(=O)N1CCC(C(=O)Nc2nc3ccc(F)cc3s2)CC1
2%,0.9%,-7%,-3,CC(C)c1nc(SCC(=O)Nc2c[nH]c(=O)[nH]c2=O)c2cnn(-c3ccccc3)c2n1
x,u,-3%,x,CCN(CC(=O)Nc1c(F)cccc1F)C(=O)CN1C(=O)c2ccccc2C1=O
-16%,-2.4%,12%,-1,COc1cccc(NC(=O)c2ccccc2SC)c1
x,0.3%,25%,x,CC(=O)Nc1ccc(S(=O)(=O)N(C)CC(=O)OCC(=O)NCc2ccco2)cc1
-1%,u,-13%,2,O=C(CSc1nnc(SCc2cccc3ccccc23)s1)N/N=C/C=C/c1ccccc1[N+](=O)[O-]
0%,8.4%,7%,-3,CCS(=O)(=O)N1CCC(C(=O)NCC2CCCO2)CC1 (stereo not given)
-7%,-2.7%,0%,1,COc1ccc(N(CC(=O)Nc2ccccc2C(=O)NCc2ccco2)S(C)(=O)=O)cc1

# 3 structures out of the list, arranged by length of the SMILES, rising:
miR-21 FLuc,Rango complex inh,Rango dissoc inh,GLA inh pH 4.5,compound
-16%,-2.4%,12%,-1,COc1cccc(NC(=O)c2ccccc2SC)c1
x,0.3%,25%,x,CC(=O)Nc1ccc(S(=O)(=O)N(C)CC(=O)OCC(=O)NCc2ccco2)cc1
-1%,u,-13%,2,O=C(CSc1nnc(SCc2cccc3ccccc23)s1)N/N=C/C=C/c1ccccc1[N+](=O)[O-]

# Screening data: PubChem, National Center for Advancing Translational Sciences (NCATS)
